Compound activity (PubChem)
BasE inh – BasE siderophore enzyme inhibitors, primary screen, biochemical, Acinetobacter baumannii ATCC 17978, fluorescence polarization. purified BasE, fluorescence polarization binding displacement. inhibition, % (concentration not given with the values). actives 0.1% (n = 84,000). AID 485350, 2010;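 active means both replicates above 25% with normal brightness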;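 further: 0% = negative plate control signal and 100% = positive plate control signal; stock transfer was 100 nL into about 30 µL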
KSHV LANA nucl – inhibitors of KSHV LANA-nucleosome binding, primary screen, biochemical, fluorescence polarization, FITC-LANA1-23, chicken nucleosomes; FITC-LANA1-23 / chicken nucleosome fluorescence polarization; hits give low values; z-score (no concentration beside the values); actives 0.3% (n = 51,000);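 active means both repeat wells score below -2 in polarization z-score versus plate sample wells, excluding overly bright wells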;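 further: 100 nL library stock added to about 30 µL; numbers are from one replicate; some results filed as inactive read as strong as hits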
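Material: Purified chicken nucleosomes with FITC-labelled LANA N-terminal peptide (1-23) | Reagent: 50 nM FITC-LANA1-23 probe | Medium: TEN-BT buffer, pH 7.5 | Times: 10–45 min incubation at room temperature | Detection: Fluorescence polarization | Replication: Duplicates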
Starred values were filed as active, the others as inactive; . = not tested or not shown; & = joins results of further samples. These rows are one share of the data; count on the stated rates, not on these rows.

Under each structure – KSHV LANA nucl | BasE inh
N#Cc1c(N)n[nH]c1CCCCCN=Cc1cc(Br)ccc1O
    . | 1.2
CC(C)(C)C(=O)/C(C#N)=C/c1ccc(C#N)cc1
    . | 6.9
O=C(Cn1cnnn1)Nc1ccccc1Cc1ccccc1
    . | 0.8
CC(NC(=O)c1ccc2c(c1)N(C)CCS2)c1ccccc1 (stereo not given)
    0.0075 | 2.4
NS(=O)(=O)c1ccccc1
    0.66 | 0.9
CCn1c(SC(C)C(=O)NC(C)c2ccc(F)cc2)n[nH]c1=O (stereo not given)
    . | 1.6
CN(C)C(=S)Nc1ccc(S(=O)(=O)N2CCCCC2)cc1
    . | -1.1
O=C(Cn1cc(S(=O)(=O)N2CCCC2)c(S(=O)(=O)N2CCCC2)c1)N1CCc2ccccc21
    . | -5.8
CCn1cc(CN(C)C(=S)Nc2ccc(Br)cc2Cl)c(C)n1
    0.13 | 0.1
CS(=O)(=O)c1ccc2ccn(O)c2c1
    -0.048 | 0.3
O=C(C1CC2C=CC1C2)N1CCN(c2ccccc2)CC1 (stereo not given)
    . | 1.2
O=c1c2c(nc3n1CCC3)sc1c(O)c(Br)ccc12
    1.6 | -0.7
Cc1cc(N2CCCC2)nc(-n2nc(C)cc2C)n1
    -1.9 | 1.1
CCCN(C(=O)CSc1ccccc1C(=O)O)C1CCS(=O)(=O)C1 (stereo not given)
    . | -1.7
CC1Sc2ccc(C(=O)Oc3ccccc3C#N)cc2NC1=O (stereo not given)
    . | -3.8

Exported tab-delimited: 3 of the compounds above
structure	KSHV LANA nucl	BasE inh
O=C(Cn1cnnn1)Nc1ccccc1Cc1ccccc1	.	0.8
CC(NC(=O)c1ccc2c(c1)N(C)CCS2)c1ccccc1 (stereo not given)	0.0075	2.4
NS(=O)(=O)c1ccccc1	0.66	0.9

More results:
Under each structure – KSHV LANA nucl | BasE inh
Cc1sc2ncnc(Nc3ccc4c(c3)OCCCO4)c2c1C
    . | 1.9
CN1CCN(CC(O)(c2ccc(F)cc2)c2ccc(F)cc2)CC1
    0.9 | .
Cc1ccccc1-n1nc(-c2cccnc2)cc1C(=O)NN
    . | 0.9
Cc1ccc(S(=O)(=O)Nc2nnc(CC(C)(C)C)s2)cc1
    -0.26 | -6.8
O=C(CSc1nnc2n1CCCCC2)N1N=C(c2ccco2)CC1c1ccco1 (stereo not given)
    . | -0.3
Cc1ccc(N(Cc2ncc(-c3ccccc3)o2)S(=O)(=O)c2ccc3c(c2)OCCO3)cc1
    . | 2.1
COc1cc2c(cc1NC(=O)CN1CCN(S(=O)(=O)c3ccc(F)cc3)CC1)oc1ccccc12
    0.057 | -1.9
NC(=O)Cn1nnc2sc3c(c2c1=O)CCCC3
    . | 4.5
Cc1cc(-c2csc(NCc3ccccc3)n2)c(C)n1CC1CCCO1 (stereo not given)
    . | -1.7
Clc1cccc(Cl)c1COc1ccccn1
    0.7 | -1.0
O=C(/C=C/c1ccc(Br)o1)OCC(=O)N1CCN(S(=O)(=O)c2ccc3ccccc3c2)CC1
    . | -1.4
O=C(Nc1ccccc1)/C(=C/c1ccccc1)NC(=O)c1ccccc1
    . | 1.2
CN(Cc1ccc(Cl)c(Cl)c1)CN1C(=O)NC2(CCCC2)C1=O
    . | -8.2
O=C(CN1C(=O)c2ccccc2C1=O)ON1C(=O)CCC1=O
    . | -0.2
CC(NCCN1C(=O)S/C(=C\c2ccc(C)cc2)C1=O)=C(C#N)C#N
    . | 2.0
O=c1[nH]cc(C(F)(F)F)cc1Cl
    . | 0.3
O=S(=O)(c1cccc(CSc2nnc(-c3cccs3)n2-c2ccccc2)c1)N1CCOCC1
    . | -5.3
N#Cc1cccc(CSc2nnc(SCc3cccc(C#N)c3)s2)c1
    . | 2.7
CCOc1ccc(C=Nc2ccc(C(=O)O)cc2)c(O)c1
    -0.77 | 0.2
Cc1noc(C)c1CCNC(=O)c1ccc(NC(=O)C2=CSCCO2)cc1
    0.93 | 2.1
Cc1cc(C)cc(NC(=O)C2CC2C)c1 (stereo not given)
    . | -1.2
COc1ccc(NC(=O)N2CCCC2C(=O)Nc2ccccc2)cc1 (stereo not given)
    -1.2 | 2.4
Cn1nc(-c2ccccc2)ccc1=O
    -0.68 | 3.0
COc1ccccc1C(=O)COC(=O)Cn1nnc2ccccc21
    . | 8.5
O=C1NC(c2ccccc2)(C(F)(F)F)SC2=NCCCN12 (stereo not given)
    . | 1.7
CCc1cccc(-n2c(N3CCOCC3)n[nH]c2=S)c1
    . | 1.0
Cc1c(CC(=O)N2CCCC2)c(=O)oc2cc(O)ccc12
    0.88 | -0.9
Cc1noc(C)c1-c1nc(CS(=O)(=O)Cc2ccc(Cl)cc2)no1
    . | -0.8
CC(C)CNC(=O)c1ccc(COc2ccc(Cl)cc2Cl)o1
    0.46 | -1.8
CC1CCCC(C)N1/N=C/c1ccc(C#N)cc1 (stereo not given)
    . | 1.3
COc1ccccc1OCCn1cc(/C=C2/SC(=S)NC2=O)c2ccccc21
    . | -10
O=C(CSc1nnc(-c2ccc(Cl)cc2)o1)OCC(=O)c1ccccc1
    . | 0.1
O=S(=O)(c1cccc(C(F)(F)F)c1)N1CCCC(n2nnc3ccccc32)C1 (stereo not given)
    0.54 | -0.9
CCCC(C)C(=O)Nc1ccc(-c2nc3ccccc3o2)cc1 (stereo not given)
    -2.2* | 1.0
CC1(C)CC(=O)C2=C(C1)C(c1cccnc1)Nc1ccc3ccccc3c12 (stereo not given)
    . | 0.2
COc1ccc(/C=C/C(=O)N=c2sccn2C)c(OC)c1
    . | -2.4
Cn1ccnc1C1(O)CCNCC1
    0.36 | -0.5
CC(C)c1ccc(NC(=S)Sc2ccc(F)cc2F)cc1
    . | 3.4
O=C(c1csc(-c2ccccc2)n1)N1CCN(S(=O)(=O)c2ccc3c(c2)OCCCO3)CC1
    . | 2.6
CS(=O)(=O)CCC(C(=O)Nc1ccccc1)N1Cc2ccccc2C1=O (stereo not given)
    0.4 | -0.8
COc1ccc(Cc2nn3c(-c4cccs4)nnc3s2)cc1OC
    -1 | 1.2
CCOC(=O)c1cnn(C)c1NS(=O)(=O)c1ccc(Cl)cc1
    . | 1.3
Cc1nc2sccn2c(=O)c1S(=O)(=O)NCc1cccnc1
    -0.21 | 3.1
CC(=O)[C@H]1CCC2C3CCC4=CC(=O)CC[C@]4(C)C3CC[C@@]21C (stereo not given in full)
    -0.42&0.35 | -2.1
Clc1ncnc2sccc12
    . | -1.3

Printed as active in KSHV LANA nucl (from the list above):
| Structure | KSHV LANA nucl |
| --- | --- |
| CCCC(C)C(=O)Nc1ccc(-c2nc3ccccc3o2)cc1 (stereo not given) | -2.2* |

(list continues)
Under each structure – KSHV LANA nucl | BasE inh
C[N+]1(C)C2CC[C@H]1CC(OC(=O)C(O)c1ccccc1)C2 (stereo not given in full)
    -0.7&0.2 | 2.1
CC(OC(=O)Cn1c(=O)oc2ccccc21)C(=O)N(C)Cc1cccc(F)c1 (stereo not given)
    . | 4.6
O=C(NCc1cccs1)c1ccc2ccccc2n1
    . | 0.4
COCCN(Cc1ccccc1)S(=O)(=O)c1cccc(C#N)c1
    . | -0.3
c1nnnn1CC1CCOCO1 (stereo not given)
    0.8 | -1.8
O=C(Nc1cccc(NC(=S)NC(=O)c2cccc3c(Br)cccc23)c1)c1ccco1
    -0.58 | -2.0
COc1ccc(Cl)cc1NC(=O)NCC1CCN(C(=O)OC(C)(C)C)CC1
    2.8 | -4.6
N#Cc1c(N2CCCCC2)nc(N)c2c(N)nc(SCC(=O)O)cc12
    . | 16
O=C(Nc1cccnc1)C1CC(c2ccc(Cl)cc2)=NO1 (stereo not given)
    0.11 | -0.6
CNC(=O)COc1ccc(C(=O)c2ccc(F)cc2)cc1
    . | -0.4
Cc1ccc(C)n1C(CC(=O)O)C1CCCCC1 (stereo not given)
    -0.42 | .
CCOc1ccc(C(=O)NN)cc1
    . | 0.9
CS(=O)(=O)Cc1ccccc1
    -0.47 | 0.7
CC(C)(C)c1cc(C(=O)Oc2ccc(Cl)cc2)n(Cc2ccccc2)n1
    . | 1.2
COC(=O)CNC(=O)Cc1c(F)cccc1Cl
    -0.52 | 1.5

Looked up above:
BasE inh, `COCCN(Cc1ccccc1)S(=O)(=O)c1cccc(C#N)c1` = -0.3
BasE inh, `O=C(NCc1cccs1)c1ccc2ccccc2n1` = 0.4
BasE inh, `N#Cc1c(N2CCCCC2)nc(N)c2c(N)nc(SCC(=O)O)cc12` = 16
BasE inh, `CC(C)(C)c1cc(C(=O)Oc2ccc(Cl)cc2)n(Cc2ccccc2)n1` = 1.2
BasE inh, `CNC(=O)COc1ccc(C(=O)c2ccc(F)cc2)cc1` = -0.4
KSHV LANA nucl, `COc1ccc(Cl)cc1NC(=O)NCC1CCN(C(=O)OC(C)(C)C)CC1` = 2.8

Continuation.
Under each structure – KSHV LANA nucl | BasE inh
CC1(C)CCCC2=C1CC1C(=O)N(CCC[N+](C)(C)C)C(=O)C1C2 (stereo not given)
    . | 1.0
O=c1[nH]c(=S)[nH]c(C(F)(F)F)c1Cc1ccc(Cl)c(Cl)c1
    . | 1.2
COc1cc2c(cc1OC)CN(Cc1nc3ccsc3c(=O)[nH]1)CC2
    . | -0.1
CC(=O)Nc1c(C(=O)O)oc2ccc(Cl)cc12
    1.3 | -1.0
O=C(/C=C/c1ccco1)ON1C(=O)c2ccccc2C1=O
    -1.5 | 3.5
CC1(CSc2ccccc2C(=O)NCC2COc3ccccc3O2)NC(=O)NC1=O (stereo not given)
    . | 2.4
CCN1CCN(C(=O)N[C@@H](C(=O)N[C@@H]2C(=O)N3[C@@H]2SC(C)(C)[C@@H]3C(=O)O)c2ccccc2)C(=O)C1=O
    -0.74&-0.4 | -5.2
CCOC(=O)c1c(NC(=O)c2ccco2)sc2c1CCCC2=O
    . | 3.7
O=C(Nc1ccc(Cl)cc1)Nc1nc(-c2ccccc2)cs1
    . | 1.5
COc1cc(C(=O)NC(C)C(=O)NN)cc(OC)c1OC (stereo not given)
    0.6 | -0.8
O=C(COC(=O)c1nn(CCO)c(=O)c2ccccc12)Nc1ccc(Cl)c(Cl)c1
    . | 0.3
O=C1c2nc3cc(-c4ccccc4)[nH]n3c(=O)c2CN1C1CCCCC1
    . | 3.2
O=C(/C=C/c1ccco1)NNc1c(F)c(F)cc(F)c1F
    . | 4.5
Cc1cccc(C(N)=S)c1
    . | -0.5
COc1ccc(CCNC(=O)CCCn2c(=O)[nH]c3ccccc3c2=O)cc1OC
    -1.3 | -0.5
CC1CC(C)CN(c2ccc(NC(=O)c3ccc(Cl)cc3)cc2C(=O)O)C1 (stereo not given)
    . | 0.4
c1csc(-c2nnc(COc3ccc4c(c3)OCO4)o2)c1
    . | -0.6
CCCCNC(=O)Nc1ccccc1Oc1ccccc1
    0.35 | 4.1
CCOC(=O)c1c(/N=C/c2nc(-c3ccco3)oc2O)sc2c1CCC2
    -0.079 | 10
O=C1CN(C(=O)/C=C/c2ccccc2)C(c2ccccc2)c2cc(Br)ccc2N1 (stereo not given)
    . | 1.4
NC(=O)N/N=C/c1cccs1
    -1 | 1.8
Nc1nnc(SCC(O)Cn2c3c(c4ccccc42)CCCC3)s1 (stereo not given)
    2.4 | .
CCN(CC(=O)NC)S(=O)(=O)c1ccccc1
    -2.1 | 1.2
COc1cc2nc(CN(C)C3CCCCC3)[nH]c(=O)c2cc1OC
    . | -0.2
CN1C(=O)C(=Cc2cccn2-c2ccc(N(C)C)cc2)C(=O)N(C)C1=S
    . | -2.2
CCc1ccc(CNCc2cccs2)cc1
    -0.75 | -0.2
CC1Oc2ccccc2N(CCC(=O)O)C1=O (stereo not given)
    . | 4.6
OC1CCC(NCc2ccc(-c3nc4ccccc4s3)o2)CC1 (stereo not given)
    . | -4.4
COc1cc(C#N)ccc1Oc1nc(CN2CCOCC2)nc2scc(-c3cccs3)c12
    . | 0.8
Cc1cccc(NC(=O)Cn2cc(CO)c3ccccc32)c1
    0.87 | -0.9
CCCC(=O)c1ccc(-c2ccccc2)cc1
    0.39 | .
O=C(Nc1ccc(Br)cn1)c1ccccc1
    -0.58 | -0.5
COC(=O)c1ccc(C)c(NC(=O)C(C)Sc2ccccc2)c1 (stereo not given)
    -0.11 | -2.2
CC(Sc1nnc(-c2ccco2)n1Cc1ccccc1)c1nc2ccccc2c(=O)[nH]1 (stereo not given)
    . | -0.3
Nc1cnc2cccc3c2c1-c1ccccc1C3=O
    -8.8 | 16
O=c1c2ccccc2c(-c2ccc(F)cc2)nn1CCO
    . | 0.8
C=CCn1c(C)cc(C(=O)COC(=O)c2ccc(N3CCCC3=O)cc2)c1C
    . | 1.2
CC(=O)N1CCc2cc(C(=O)O)ccc21
    . | -3.2
CCN=C1S/C(=C\c2ccc(N3CCOCC3)cc2C)C(=O)N1CC
    0.044 | -0.6
Cc1nc(Cc2nnc(SC(C)c3nc4scc(-c5ccccc5)c4c(=O)[nH]3)o2)cs1 (stereo not given)
    . | -0.7
CCC(=O)Oc1ccc2c(c1)nc(C)n2CC
    0.44 | -5.4
Nc1ccc2nc(NC(=O)C34CC5CC(CC(C5)C3)C4)sc2c1
    . | 1.6
O=C(NCC(=O)c1cccs1)c1ccc(-c2ccccc2F)o1
    1.1 | -2.4
O=C(O)/C=C/C(=O)N1CCN(S(=O)(=O)c2ccccc2)CC1
    . | 1.7
CC(C)CC(=O)NC(=S)Nc1ccc(S(=O)(=O)N=C(N)N)cc1
    0.039 | -1.7
c1cn2c(NC3CCCC3)c(-c3ccc(N4CCOCC4)cc3)nc2cn1
    0.052 | 2.0
O/N=C(/Cn1nnc(N2CCCC2)n1)c1ccc(Cl)cc1
    . | 0.5
